HPGD inh = qHTS Assay for Inhibitors of HPGD (15-Hydroxyprostaglandin Dehydrogenase). 15-hydroxyprostaglandin dehydrogenase [NAD(+)] (Homo sapiens), P15428. Potency, µM, for the others: top-dose activity change, negative = inhibition, usual class: inhibitors. AID 894, 2007. actives 4.3% (n = 150,000). purified HPGD, NADH fluorescence kinetic, PGE2 substrate; active = well fitted inhibition curve with a large enough effect (not every such curve was filed as active); inconclusive = small, poorly fitted or top-dose-only effect, or another doubt; inactive = no such curve, though single readings can be large or run the other way;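 note: top concentration of the series not given in the record; plate controls included wells without enzyme; inactives centre near -10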
Target sequence (P15428 whole entry, looked up): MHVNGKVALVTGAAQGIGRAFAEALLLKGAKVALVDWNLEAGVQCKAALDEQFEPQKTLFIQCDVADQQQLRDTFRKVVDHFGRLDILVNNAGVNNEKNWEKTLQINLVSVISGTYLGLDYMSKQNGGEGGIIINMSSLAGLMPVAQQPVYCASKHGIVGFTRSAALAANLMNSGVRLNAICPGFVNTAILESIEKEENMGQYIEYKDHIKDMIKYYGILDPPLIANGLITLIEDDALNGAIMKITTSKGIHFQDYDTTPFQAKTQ
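20 nM HPGD preincubated 15 min at room temperature with compound in 50 mM Tris-HCl pH 8, 0.01% Tween 20. Started with 1 mM NAD+ and 30 uM prostaglandin E2; NADH fluorescence (360/450 nm) read 5 times over 30-s intervals, last minus first.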
Active calls of the source: *; ? = inconclusive; & = joins results of further samples. % is set by controls: 0 for no effect and ±100 for the full control effect; potency is the fitted concentration of half-maximal effect. These rows are one share of the data; rates above refer to the full screens.

SMILES | HPGD inh
N[C@@H](COP(=O)(O)O)C(=O)O | -8.3%&-7.2%
CN1CCN(C2CCCCCC2)CC1 | -4.4%
CCn1c2ccccc2c2cc(NC(=O)CSc3nnc(-c4ccc(OC)cc4)n3N)ccc21 | ?
C#CCn1c(=O)c2c(ncn2C)n(C)c1=O | -8.1%
Cc1cccc(-n2c(CNC(=O)COc3ccccc3)nnc2SCC(=O)Nc2nccs2)c1 | -11.9%
O=C(O)c1cnc(-c2ccccc2)nc1Sc1ccccc1Cl | 14.1µM*
Cc1cc2oc3c(c(=O)c2cc1C)C(c1cccc(Br)c1)N(Cc1ccco1)C3=O (stereo not given) | -11.2%
CCc1ccc(C2NC(=S)NC3=C2C(=O)CCC3)cc1 (stereo not given) | -4.1%
O=c1cc(-c2ccccc2)nc(SCc2ccc(F)cc2)[nH]1 | -11.4%
CCn1c(SCC(=O)N/N=C/c2ccc(C)o2)nnc1-c1ccc(C(C)(C)C)cc1 | -2.6%
CC[n+]1c(/C=C2\C=C(C)CC(C)(C)C2)sc2ccccc21 | -24.2%
CCC1(C)CC(C(CC(=O)O)c2ccc(C)cc2)CCO1 (stereo not given) | -6.3%
C=CCn1c(COc2ccccc2C)nnc1SCC(=O)O | -18.8%
Cc1cc(N2CCCC2)n2nc(C)c(-c3ccccc3)c2n1 | -18.9%
CCc1nnc(NS(=O)(=O)c2ccc(N/C=C/C(=O)c3ccc(C)cc3)cc2)s1 | 17.8µM*
O=C(NCc1ccco1)c1nnc(Cc2ccc(F)cc2)o1 | -12.7%
c1ccc(C(c2ccccc2)N2CCN(Cc3nnnn3C3CCCC3)CC2)cc1 | -4.2%
COC(=O)c1nnn(-c2nonc2N)c1CSc1ccc(Cl)cc1 | -5.1%
CCCNC(=O)OCC12CC3CC(CC(C3)C1)C2 | 1.8%
CCc1cc2cc3c(cc2nc1SCC(=O)N1CCN(C(=O)c2ccco2)CC1)OCO3 | -17.1%
c1csc(-c2nn[nH]n2)c1 | -7.8%
Oc1ccc(Cn2cc[nH]c2=S)cc1 | ?
O=C(O)C1C2C=CC(C2)C1C(=O)N1CCOCC1 (stereo not given) | 0.0%
O=C(O)CC/C(=N\Nc1ccc(S(=O)(=O)N2CCCC2)cc1[N+](=O)[O-])c1cccs1 | ?
CCC1CCCCN1Cc1nc2c(c(=O)n(C)c(=O)n2C)n1CCCc1ccccc1 (stereo not given) | -10.9%
Cn1nc(C(=O)Nc2nc3ccccc3[nH]2)c2ccccc2c1=O | -15.1%
COCCN1Cc2cccc(C(=O)Nc3ccccc3OC)c2C1=O | 1.0%
Cc1n[nH]c(C)c1Sc1ccccc1N=Cc1cc(Cl)cc([N+](=O)[O-])c1O | -13.0%
COC(=O)c1ccc(C(=O)OC)c(NC(=O)CSCc2ccccc2Br)c1 | ?
Cc1cc2cc3c(C)cc(=O)oc3c(C)c2o1 | -16.6%&-3.2%
C=C(C)[C@H]1CC=C(CO)CC1 | -8.5%
COc1ccc(-c2nc(SCC(=O)NCc3ccco3)c(-c3ccccc3)[nH]2)cc1OC | -16.2%
Cc1ccc(CSC2=Nc3ccccc3C3=NC(CCC(=O)NCc4ccco4)C(=O)N23)cc1 (stereo not given) | -23.5%
COc1ccccc1-n1cnnc1SCc1csc(-c2ccccc2)n1 | -7.8%
CCCCCCC(=O)N(O)C1CC(=O)N(Cc2ccccc2)C1=O (stereo not given) | 17.8µM*
CCOC(=O)CSc1nc(N)nc(C)c1Br | -13.6%
COc1cc(C2Nc3ccccc3C(=O)N2c2ccccc2)ccc1O (stereo not given) | ?
Cn1cnnc1SC1CCCCC1NS(=O)(=O)c1ccc(Cl)cc1 (stereo not given) | -3.3%
COc1ccc2c(c1)[nH]c1c(N3CCN(Cc4ccc5c(c4)OCO5)CC3)ncnc12 | ?
CCc1nc(SCC(=O)NCCc2ccc(OC)c(OC)c2)c2c(=O)n(C)c(=O)n(C)c2n1 | -3.6%
COCCCNC(=O)COc1ccc(S(=O)(=O)NCc2ccccc2)cc1Cl | -5.9%
O=C(O)C1C2C=CC(C2)C1C(=O)N1CCN(C/C=C/c2ccccc2)CC1 (stereo not given) | -4.2%
Cc1cc(/C=C(\C#N)C(=O)NCCc2c[nH]c3ccccc23)c(C)n1C | -6.4%
COc1cc(S(=O)(=O)Nc2cc(C)cc(C)c2)ccc1F | -27.1%
N#CCSc1nnc(Cc2cccs2)n1C1CCCCC1 | -6.3%
C(=N\Nc1nc2ccccc2s1)/c1cccs1 | -11.6%
Cc1cc(C(=O)COC(=O)CNC(=O)c2ccc(Cl)c(Cl)c2)c(C)n1Cc1ccco1 | -4.1%
BrC(=C\c1ccccc1)/C=N/N1CCN(Cc2ccccc2)CC1 | -6.6%
OC[C@H]1NC[C@@H](O)[C@@H](O)[C@H]1O | -12.2%
O=C(Cc1ccccc1)Nc1c(C(=O)N2CCCCCC2)cnn1-c1ccccc1 | -6.0%
C/C(CCN1CCCCc2nc(C)c(C)cc21)=N\O[C@@H](C)c1cn([C@H](CO)Cc2ccccc2)nn1 | 1.5%
Cc1ccccc1/C=C\c1nc2ccccc2c(=O)n1Cc1ccccc1 | -24.6%
O=C(O)CCN1C(=O)C2C3C=CC(C3)C2C1=O (stereo not given) | -8.0%
CC(C)Cn1c2c(c(O)c(C(=O)Nc3nccs3)c1=O)CCCC2 | -4.8%
CCOC(=O)N1CCC(NC(=O)Cn2cccc2C(=O)c2ccccc2)CC1 | -19.4%
CC1(C)Cc2ccccc2-c2nnc(SCC(=O)N3CCc4ccccc43)n21 | ?
CCC(=O)NC(NC(=O)CC)C(Cl)Cl | -7.2%
CCCCN1CN=C(Nc2nc3ccccc3o2)NC1 | -8.5%
COc1ccccc1N1CCN(C(=O)c2ccc(NC(C)=O)cc2)CC1 | -0.2%
O=C(c1cc2nc(C3CC3)cc(C(F)(F)F)n2n1)N1CCCC1 | ?
The list goes on.
SMILES | HPGD inh
O=C(c1ccccc1)c1ccc(OCC(O)CNC2CCCc3ccccc32)cc1 (stereo not given) | -4.8%
COc1ccc(C2C(C#N)=C(N)Oc3c2c(C)nn3-c2ccccc2)cc1Cn1nc(C)c([N+](=O)[O-])c1C (stereo not given) | ?
COc1ccc(-n2c(N3CCN(C)CC3)nc3sc4c(c3c2=O)CCCCC4)cc1 | ?
O=C(COc1ccccc1)Nc1ccccc1C(=O)NCc1ccco1 | -9.3%
COc1ccc(-n2c(N)c(C(=O)NCc3cccnc3)sc2=S)cc1 | -5.8%
O=C(Oc1cccc(NC(=O)c2cccs2)c1)c1cccc(S(=O)(=O)N2CCCC2)c1 | ?
Cc1ccccc1NC(=O)CSc1nnc(-c2ccco2)c(-c2ccco2)n1 | 8.91µM*
O=C(CCC(=O)OCC(=O)c1ccc(Cl)cc1Cl)Nc1cccc2cccnc12 | -17.1%
Cc1ccc(NC(=S)N/N=C2/CCCc3c(C)cc(C)cc32)cc1 | -12.2%
COc1cccc(CNc2ccc(F)c(Cl)c2)c1O | -8.0%
CCOc1cc(CNc2ccccc2)cc(Br)c1OCC(=O)NC(C)(C)C | -12.1%
O=C(c1csnn1)N1CCC2(CCN(Cc3cc(C(F)(F)F)cc(C(F)(F)F)c3)CC2)CC1 | -15.3%
COC(=O)c1c(NC(=O)CC2Nc3ccccc3NC2=O)sc(C)c1C (stereo not given) | ?
CCOC(=O)c1c(NC(=O)CSc2nnc(-c3ccccc3)o2)sc(C(C)=O)c1C | 17.8µM*
COc1ccc2nc3c(cc2c1)c(NC(=O)C1CCCO1)nn3CC(C)C (stereo not given) | ?
CC1=C(C(=O)OCC2CCCO2)C(c2ccccc2OC(C)C)C2=C(CC(c3ccco3)CC2=O)N1 (stereo not given) | ?
Cc1ccc(C2CC(c3cccs3)=NN2C(=O)CSC2=NN3CCCC(=O)N=C3S2)cc1 (stereo not given) | -27.1%
Cc1nc2nc(-c3ccc(Cl)cc3)[nH]n2c(=O)c1C | -12.7%
CN(C)c1ccc(/C=N/NC(=O)CN(c2ccccc2Cl)S(C)(=O)=O)cc1Br | -23.2%
Cc1ccc(NC(=O)CSc2nnc(NC(=O)c3ccc(S(=O)(=O)N4CCOCC4)cc3)s2)cc1 | -15.5%

Overlap with the part before: six compounds; new compounds follow.
SMILES | HPGD inh
COc1ccc2nc3c(cc2c1)c(NC(=O)C1CCCO1)nn3CC(C)C (stereo not given) | ?
CC1=C(C(=O)OCC2CCCO2)C(c2ccccc2OC(C)C)C2=C(CC(c3ccco3)CC2=O)N1 (stereo not given) | ?
Cc1ccc(C2CC(c3cccs3)=NN2C(=O)CSC2=NN3CCCC(=O)N=C3S2)cc1 (stereo not given) | -27.1%
Cc1nc2nc(-c3ccc(Cl)cc3)[nH]n2c(=O)c1C | -12.7%
CN(C)c1ccc(/C=N/NC(=O)CN(c2ccccc2Cl)S(C)(=O)=O)cc1Br | -23.2%
Cc1ccc(NC(=O)CSc2nnc(NC(=O)c3ccc(S(=O)(=O)N4CCOCC4)cc3)s2)cc1 | -15.5%
O=C1NCCN/C1=C\C(=O)c1ccccc1 | -4.1%
Cc1ccc(C(=O)Cn2nnc(-c3ccccc3-n3cnnn3)n2)cc1 | -12.0%
COc1cc2c(cc1OC)CN(Cc1ccc(OC)c(C)c1OC)CC2 | -1.8%
O=C(N1CCNCC1)N1CCOCC1 | -12.4%
COc1ccc(Nc2ccnc(Nc3ccc(OC)cc3)n2)cc1 | -6.2%
COCCSc1ccccc1C(=O)Nc1cc(C)ccn1 | -2.0%
O=C(O)CC(C(=O)NC1CCCCC1)C1CCCO1 (stereo not given) | -4.5%
Cc1cc2nc(C3CCN(C(=S)NCC(C)C)CC3)[nH]c2cc1C | -10.7%
CCOC(=O)n1c(=O)n(Cc2c(Cl)cccc2Cl)c2ccccc21 | -13.8%
CCCc1cc(=O)n2[nH]c(-c3cc(OC)c(OC)c(OC)c3)nc2n1 | -13.9%
CCOC(=O)c1c(C)n(C)c2cc(Br)c(C)cc12 | -5.8%
O=S(=O)(NC1CC1)c1ccc(S(=O)(=O)N2CCN3CCCC3C2)cc1 (stereo not given) | -5.8%
COC(=O)c1c(NC(=O)COC(=O)Cn2cnc3ccccc32)sc(C)c1C | -19.1%
CN1C(=O)C(O)(CC(=O)c2cccnc2)c2ccccc21 (stereo not given) | 2.9%
COc1cc2[nH]c(=O)n(CCCC(=O)NCCc3ccccc3)c(=O)c2cc1OC | ?
CCCCn1c(C(C)NC(=O)COC)nc2ccccc21 (stereo not given) | 3.8%
COc1ccc(C(=O)Nc2cc3c(cc2OC)CCCC3)cc1Br | -16.6%
CCOC(=O)c1sc(NCCNc2nc(C)c(C(=O)OCC)s2)nc1C | -5.3%
O=C(c1ccc(Cn2cc(Br)cn2)o1)n1cccn1 | -1.9%
CCCCC1=CC2=C(OC(C)=O)C(=O)C(C)(OC(=O)CC)C(=O)C2=CO1 (stereo not given) | -5.8%
CC(C)[C@H](N)c1nnc(SC/C=C/c2ccccc2)o1 | -1.7%
Cc1cccc(Oc2sc(C(=O)c3ccccc3)c(N)c2C#N)c1C | ?
Cc1ccc(C(=O)CNc2ccc(F)cc2)cc1 | -25.3%
Cc1ccc2cc(C#N)c(N3CCCC3)nc2c1C | -17.7%
COC(=O)c1ccc(C(NC(=O)OCc2ccccc2)/C(C)=C/[C@@H](C)C(=O)N[C@@H](CO)Cc2ccccc2)cc1 (stereo not given in full) | -13.0%
CCOC(=O)N1CCN(S(=O)(=O)c2ccc(C(=O)Nc3nnc(CC)o3)cc2)CC1 | -23.3%
CCOc1ccccc1C(=O)n1nc2nc(C)cc(C)c2c1N | -2.5%
Cc1ccc(C)c(N(CC(=O)Nc2ccc(-c3nc4ccc(C)cc4s3)cc2)S(C)(=O)=O)c1 | ?
CC(C)(C)NC(=O)CN(C(=O)CS(=O)CC(=O)Nc1ccc(F)cc1)c1ccccc1 (stereo not given) | 0.6%
O=C(O)Cc1ccc(O)c(O)c1 | ?
Cn1nc(C(F)(F)F)c(C#N)c1N1CCN(c2ccccc2F)CC1 | -5.6%
C[C@@H]1C[C@H](C)CN(S(=O)(=O)c2cc(Cl)c(Oc3ccc([N+](=O)[O-])cc3Cl)c(Cl)c2)C1 | -1.1%
O=c1c2ccccc2nc(-c2ccccc2)n1CCCn1ccnc1 | 3.7%
COc1ccc(OC)c(NC(=O)CN(c2ccc(C(C)C)cc2)S(=O)(=O)c2c(C)noc2C)c1 | -17.4%
COc1ccc2nc(NC(=O)c3ccc4ncsc4c3)sc2c1 | ?
CC(C)(C)C(=O)N1CCCC1C(=O)O (stereo not given) | -4.8%
OC(CNCCc1ccccc1)c1ccccc1 (stereo not given) | -2.8%
CCCCOC1(c2ccccc2)NC(=S)NN=C1c1ccccc1 (stereo not given) | -5.4%
CC(Sc1nnc2ccccn12)C(=O)N1CCc2ccccc2C1 (stereo not given) | -0.2%
O=C(NC1CCCCCCC1)c1ccc2c(c1)N(Cc1ccc(F)cc1)C(=O)CS2=O (stereo not given) | -4.4%

Exported as labelled records: part of the list above
> CC(C)(C)C(=O)N1CCCC1C(=O)O (stereo not given)
  HPGD inh: -4.8%
> OC(CNCCc1ccccc1)c1ccccc1 (stereo not given)
  HPGD inh: -2.8%
> CCCCOC1(c2ccccc2)NC(=S)NN=C1c1ccccc1 (stereo not given)
  HPGD inh: -5.4%
> CC(Sc1nnc2ccccn12)C(=O)N1CCc2ccccc2C1 (stereo not given)
  HPGD inh: -0.2%

Next structures follow.
SMILES | HPGD inh
CCc1ccc(S(=O)(=O)NCc2csc(-c3ccccc3)n2)s1 | -17.1%
O=C1CCc2cc(S(=O)(=O)N3CCC(C(=O)NCc4ccccc4Cl)CC3)ccc2N1 | -4.1%
C#CCCCc1nc2ccccc2c(=O)n1N | -10.2%
Cc1ccc(S(=O)(=O)N(CC(=O)N2CCC(C)CC2)c2cccc(C)c2)cc1 | -8.7%
O=C1[C@@H]2[C@@H]3C[C@@H]([C@H]4ON=C(c5ccc(Cl)cc5Cl)[C@@H]34)[C@@H]2C(=O)N1C1CCCCC1 | -14.3%
